# AID923 = qHTS Assay for Allosteric/Competitive Inhibitors of Caspase-1: Spectroscopic Profiling in AFC Spectral Region; AID 923, 2007; compound fluorescence, AFC spectral region (405/520 nm); almost no hit is shown here; Potency, µM (doses to about 57.5 µM), for inactives: top-dose fluorescence increase, hits mostly activators; 75,000 tested, 1.1% active; active = well fitted activation curve with a large enough effect; inconclusive = small, poorly fitted or top-dose-only effect;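 note: potency is the fitted concentration of half-maximal effect; 0% is about no effect; scaled to a free AFC standard on each plate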
#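 Baseline compound fluorescence (AFC region, 405 nm ex/520 nm em) taken from the intercept of kinetic reads with 50 nM caspase-1 and 5 uM Ac-WEHD-AFC; normalized to an on-plate AFC standard curve; compounds titrated up to 57 uM.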
# Resorufin fluor = compounds fluorescent in resorufin spectral region | Compound fluorescence, resorufin region 547/598 nm, buffer; stronger effect = higher value | max dye-equivalent concentration, M | 59,000 tested, 0.04% active; active = above 10 nM dye equivalent; inconclusive = 1 to 10 nM; inactive = 1 nM or less; a few of its hits are not listed in these tables; note: highest value over a series up to 38 µM
#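 Compounds in 100 mM Tris buffer, pH 8.0, incubated 15 min at room temperature, then read with 547 nm excitation and 598 nm emission filters. Fluorescence was converted to dye-equivalent concentration using an on-plate six-point resorufin standard curve.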
# A647 autofl = compound fluoresces in the A647 spectral region; Compound fluorescence, A647 channel (570/671 nm), Tris buffer; AID 592; max dye-equivalent concentration, M; 59,000 tested, under 10 active; active means above 1 µM dye equivalent; inconclusive means 0.1 to 1 µM; inactive means 0.1 µM or less;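 note: values scaled relative to a standard on each plate; highest value over a series up to 38 µM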
#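 Fluorescence read (570 nm ex, 671 nm em) after 15 min RT incubation of compounds in 100 mM Tris buffer, pH 8.0; values expressed as dye-equivalent concentration against a six-point A647 standard series on each plate.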
# A488 autofl = compound fluoresces in the A488 spectral region; compound autofluorescence, A488 spectral region, dye equivalency; stronger effect = higher value; max dye equivalency, M; 59,000 tested, 0.1% active; AID 591; active = above 10 nM dye equivalent; inconclusive = 1 to 10 nM; inactive = 1 nM or less; about half of its hits are not listed in these tables;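 note: highest value over a series up to 38 µM; compound alone in buffer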
#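 Readout is A488 dye-equivalent concentration, calibrated by a per-plate six-point Alexa 488 series. Compounds in 100 mM Tris buffer pH 8.0 were incubated 15 min at room temperature. Plates were imaged using 480 nm excitation/540 nm emission filters.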
# TSHR agonist = agonists of human thyroid stimulating hormone receptor; HEK293-CNG-TSHR cells (CNG channel as cAMP sensor), membrane potential dye, cAMP; 73,000 tested, 0.48% active; Potency, µM (titrated, usually from 57.1 µM), without a hit: at the highest dose activation, hits mostly activators; active = well fitted activation curve of enough size with the parental cells flat; inconclusive = any curve in the parental cells; inactive = parental cells flat and receptor cells flat or falling; note: potency is the fitted concentration of half-maximal effect; % of control where 0% means no effect; weak receptor curves with flat parental cells got no call and are not listed
# Target sequence (P16473 whole entry, looked up): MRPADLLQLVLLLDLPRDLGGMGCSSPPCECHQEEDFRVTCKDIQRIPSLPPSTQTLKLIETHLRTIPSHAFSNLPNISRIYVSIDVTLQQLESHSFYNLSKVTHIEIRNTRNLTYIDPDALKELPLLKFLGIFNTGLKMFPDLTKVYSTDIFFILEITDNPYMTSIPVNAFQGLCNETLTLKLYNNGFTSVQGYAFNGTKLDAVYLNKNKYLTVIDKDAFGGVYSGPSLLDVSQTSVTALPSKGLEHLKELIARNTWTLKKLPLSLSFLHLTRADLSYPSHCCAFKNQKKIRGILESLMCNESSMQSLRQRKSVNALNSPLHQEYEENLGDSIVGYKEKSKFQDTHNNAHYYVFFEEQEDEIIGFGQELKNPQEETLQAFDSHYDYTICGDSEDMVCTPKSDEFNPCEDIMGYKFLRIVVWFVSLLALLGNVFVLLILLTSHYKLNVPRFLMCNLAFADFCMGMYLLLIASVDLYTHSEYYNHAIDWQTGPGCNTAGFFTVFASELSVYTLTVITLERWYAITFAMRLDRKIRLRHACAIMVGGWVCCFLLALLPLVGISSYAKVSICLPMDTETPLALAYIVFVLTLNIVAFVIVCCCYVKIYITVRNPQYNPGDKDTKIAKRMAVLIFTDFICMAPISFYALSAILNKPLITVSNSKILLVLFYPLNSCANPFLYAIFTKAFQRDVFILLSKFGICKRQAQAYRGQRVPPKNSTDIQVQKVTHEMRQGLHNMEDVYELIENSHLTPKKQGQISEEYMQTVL
#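 HEK 293 cells stably expressing TSHR and a cAMP-gated CNG channel; parental CNG-only cells as counterscreen. Cells preloaded 60 min with membrane potential dye plus 100 uM RO 20-1724, then compound 30 min; fluorescence read at 590 nm.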
# * hit, by the source's call; i = inactive; u = inconclusive; x = no result given; [ ] = remark or other dose. Not all compounds are listed; the hit share may differ from the screen's.
SMILES,AID923,Resorufin fluor,A647 autofl,A488 autofl,TSHR agonist
O=C(Cc1c[nH]c2ccccc12)NCc1ccc2c(c1)OCO2,-1.9%,i,1e-09,i,-2%
Cc1cc(C)nc(-n2nc(C)c3c(C(F)F)cc(C)nc32)n1,1.4%,i,1e-09,i,-1%
COC(=O)COc1cc(C)cc2oc(=O)c(CC(=O)OC)c(C)c12,-1.6%,i,9.4e-09,i,29%
COc1cc(OC)cc(C(=O)Nc2ncc3c(n2)CC(C)(C)CC3=O)c1,-1.8%,i,1e-09,i,14%
CCOC(=O)C1CCCN(c2c(Nc3ccc(C)c(C)c3)c(=O)c2=O)C1 (stereo not given),-1.4%,x,x,x,3%
Cc1cccc(C(=O)Nc2ccccc2C(=O)OCc2c(C)noc2C)c1,0.0%,i,3.3e-09,i,u
Cc1nc(S(=O)(=O)N(C)c2ccccc2)c(C#N)c(C)c1Cl,-0.7%,i,1.2e-09,i,3%
COc1cc2c(cc1OC)C(c1cccnc1)CC(=O)N2 (stereo not given),-1.2%,x,x,x,3%
C=CCNc1nc(-c2sc(NC(=O)CC)nc2C)cs1,-1.5%,i,8.6e-09,i,-8%
COc1cc(OC)c(C2CC(=O)N3CN(c4ccccc4C)CSC3=C2C#N)cc1OC (stereo not given),3.3%,i,4.1e-09,i,20%

# Compound profiles, as listed above. Order of screens: AID923	Resorufin fluor	A647 autofl	A488 autofl	TSHR agonist
# Record of COc1cc(OC)cc(C(=O)Nc2ncc3c(n2)CC(C)(C)CC3=O)c1 : -1.8%	i	1e-09	i	14%
# Record of Cc1nc(S(=O)(=O)N(C)c2ccccc2)c(C#N)c(C)c1Cl : -0.7%	i	1.2e-09	i	3%
# Record of COc1cc2c(cc1OC)C(c1cccnc1)CC(=O)N2 (stereo not given) : -1.2%	x	x	x	3%
# Record of C=CCNc1nc(-c2sc(NC(=O)CC)nc2C)cs1 : -1.5%	i	8.6e-09	i	-8%

# (listing goes on)
SMILES,AID923,Resorufin fluor,A647 autofl,A488 autofl,TSHR agonist
O=C(Nc1c(Cl)cc(Cl)cc1C(=O)NCC1CCCO1)c1ccco1 (stereo not given),-1.3%,i,1e-09,i,3%
COc1cc(C2C(C#N)=C(N)Oc3cc(C)n(CCN4CCOCC4)c(=O)c32)cc(OC)c1OC (stereo not given),x,i,1e-09,i,x
O=C(CCc1nc2ccccc2s1)OCC(=O)N1CCN(C(=O)c2ccco2)CC1,-1.0%,i,1e-09,i,12%
O=C(NCCCN1CCN(Cc2ccccc2Cl)CC1)Nc1ccccc1,2.7%,i,5.3e-09,i,9%
C=C(C)Cn1c(N(CCO)Cc2ccccc2)nc2c1c(=O)[nH]c(=O)n2C,-2.1%,x,x,x,2%
CC(C)CNC(=O)C1CCN(c2ccc(S(=O)(=O)N3CCOCC3)cc2Cl)CC1,0.9%,i,1.3e-09,i,2%
COc1ccc(C2=Nn3c(nnc3-c3cccnc3)SC2)cc1OC,x,i,1.2e-08,i,x
O=C(CSc1nc(-c2ccco2)cc(C(F)(F)F)n1)N1CCN(Cc2ccccc2)CC1,0.5%,x,x,x,u
Cn1c(Cn2c(=O)sc3ccccc32)nnc1SCC(=O)NC1CCCC1,-0.9%,x,x,x,8%
COC(=O)C1=C(C)n2nnnc2NC1c1ccc(Cl)cc1 (stereo not given),-1.2%,i,5.1e-08,i,-2%
O=C(CCCc1ccccc1)NCc1cn2ccsc2n1,-0.6%,x,x,x,2%
CCOC(=O)C1CCN(S(=O)(=O)c2cc(Br)cc3c2N(C(=O)C2CC2)CC3)CC1,0.7%,i,4.1e-09,i,u
Cc1cc2c(nc1C)CCCCN2C[C@H](C)O/N=C\[C@@H](C)[C@H](OCc1ccccc1)C(C)C,-1.2%[11.5 µM],x,x,x,24%[11.4 µM]
CCc1ccc(C2CC(c3ccc(F)cc3)Nc3nc(N)nn32)cc1 (stereo not given),2.3%,x,x,x,2%
Nc1nc(N2CCN(C/C=C/c3ccccc3)CC2)nc2ccccc12,0.9%,i,4.3e-09,i,u
Cc1ccc(NC2=NC(C(=O)Nc3ccc(C)c(C)c3)CC(=O)N2)cc1 (stereo not given),2.1%,i,3.9e-08,i,13%
Cc1ccc(NCc2nnc(SCC(=O)Nc3ncc(C)s3)n2Cc2ccco2)c(C)c1,-1.6%,i,1e-09,i,-11%
CC(NC(=O)c1cncc(Br)c1)c1ccc(S(N)(=O)=O)cc1 (stereo not given),-1.3%,i,2.4e-08,i,-1%
CCOC(=O)c1c(NC(=O)c2cc(C3CC3)on2)sc2c1CCCC2,-1.3%,x,x,x,4%
CCC1CCCCN1C(=O)CSc1nnc(CNC(=O)c2cc(OC)c(OC)c(OC)c2)o1 (stereo not given),-0.8%,i,2.4e-09,i,u

# Gathered by group, the entries above with a cyano group.
SMILES,AID923,Resorufin fluor,A647 autofl,A488 autofl,TSHR agonist
Cc1nc(S(=O)(=O)N(C)c2ccccc2)c(C#N)c(C)c1Cl,-0.7%,i,1.2e-09,i,3%
COc1cc(OC)c(C2CC(=O)N3CN(c4ccccc4C)CSC3=C2C#N)cc1OC (stereo not given),3.3%,i,4.1e-09,i,20%
COc1cc(C2C(C#N)=C(N)Oc3cc(C)n(CCN4CCOCC4)c(=O)c32)cc(OC)c1OC (stereo not given),x,i,1e-09,i,x

# Additional records follow.
SMILES,AID923,Resorufin fluor,A647 autofl,A488 autofl,TSHR agonist
COc1cc(-c2nnc(SCc3cccnc3)n2C)cc(OC)c1O,-1.0%,i,3.3e-08,i,2%[11.4 µM]
CCOC(=O)Nc1sc(=S)n(C)c1C,-0.2%,i,1e-09,i,-3%
Cc1ccccc1NC(=O)c1ccccc1NC(=O)c1ccco1,-1.2%,i,1e-09,i,u
COc1ccccc1OCc1ccc(C(=O)NCc2ccco2)o1,0.5%,i,1e-09,i,x
COc1cc(O)c2c(=O)cc(-c3ccccc3)oc2c1,-2.1%,i,2.9e-09,i,x
CCCCCn1c(=S)[nH]c2ncccc2c1=O,-0.3%,i,1e-09,i,12%
COC(=O)c1sc(NC(=O)CSc2nnc(C(C)C)n2C)nc1C,0.2%,i,2.8e-08,i,14%
CCOC(=O)N1CCN(S(=O)(=O)c2ccc3c(c2)CCN3C(=O)C2CC2)CC1,-0.7%,i,1.5e-08,i,13%
O=C(Cc1ccccc1)N1CCCC1c1ccccc1 (stereo not given),-2.3%,x,x,x,8%[11.4 µM]
CNC(=O)[C@@H]1O[C@@H](n2cnc3c(N)ncnc32)[C@@H](O)[C@H]1O,-4.7%,i,4.1e-09,i,u
CC(C)N1C(=O)C2C(c3ccccc3O)NC(C)(C(=O)O)C2C1=O (stereo not given),1.2%,x,x,x,-2%
O/N=C1/CCc2nonc2/C1=N/O,2.3%,i,1.5e-08,i,0%
CCOC(=O)CSc1nnc([C@H](C)NC(=O)OC(C)(C)C)o1,0.6%,i,1e-09,i,-1%
CCOC(=O)c1cc(=O)n2nc(-c3ccc(C)cc3)nc2s1,0.0%,i,4.1e-08,i,-15%
C/C(N)=N\S(=O)(=O)c1ccc(Cl)cc1,-1.4%,i,2.2e-09,i,0%
Clc1ccccc1NN(Cc1ccncc1)c1ccccc1Cl,0.0%[11.5 µM],i,1.8e-08,i,7%[11.4 µM]
Cn1c(CC2C(=O)Nc3ccc(Br)cc32)nc2ccccc2c1=O (stereo not given),0.7%,i,1.4e-08,i,6%
CC(=O)OC[C@@H]1O[C@H](CCO/N=C\[C@@H](C)[C@H](OCc2ccccc2)C(C)C)C=C[C@@H]1OC(C)=O,-2.3%[11.5 µM],x,x,x,8%[11.4 µM]
COc1cc2c(cc1OC)CN(C(=O)COc1ccc(C#N)cc1)CC2,0.1%,i,1e-09,i,0%
Clc1ccc(-n2nnnc2SCc2c(-c3ccccc3)nc3sccn23)cc1,0.6%,i,2.8e-09,i,u
Cc1c(NC(=O)C(C)N2C(=O)C3C4C=CC(C4)C3C2=O)c(=O)n(-c2ccccc2)n1C (stereo not given),4.0%,x,x,x,-1%
COc1ccc(CNC(=O)c2c(O)c3cccc4c3n(c2=O)CCC4)cc1,0.2%,i,1e-09,i,6%
CN(C=C1C(=O)CC(C)(C)CC1=O)CCN1CCNCC1,x,i,2.8e-08,i,x
COc1ccc(C(=O)Nc2ccccc2C(N)=O)cc1,0.8%,i,1.8e-08,i,4%
Cc1ccc(S(=O)(=O)CCc2nnc(NC(=O)c3cnccn3)s2)cc1,-1.1%,i,1e-09,i,2%
COCCCNC(=O)CS(=O)(=O)Cc1nc(-c2cccc(OC)c2)oc1C,-0.6%,i,1e-09,i,10%
O=C(C1=COCCO1)N1CCN(C(c2ccccc2)c2ccccc2)CC1,-1.6%,i,1.9e-09,i,13%
Cc1onc(-c2ccccc2)c1C(=O)Nc1ccncc1,0.2%,i,1e-09,i,5%
COc1ccc(OC)c(C2CC(=O)N3CN(c4cccc(Cl)c4C)CSC3=C2C#N)c1 (stereo not given),1.5%,x,x,x,u
O=C(C1CCN(S(=O)(=O)Cc2ccccc2)CC1)N1CCCc2ccccc21,0.0%,i,2.1e-08,i,22%
Nc1ncnc2c1ncn2[C@H]1CC[C@@H](CO)O1,-2.0%,x,x,x,u
O=C1C(c2ccncc2)=C(O)c2ccccc21,-2.5%,i,3.1e-08,i,-8%
O=C(CSc1ncn[nH]1)OCN1C(=O)c2ccccc2C1=O,-2.8%,i,4.3e-09,i,0%
CCn1c(COc2ccccc2C)nnc1SCC(=O)OC,0.5%,i,2.8e-08,i,u
Cc1oc(-c2ccccc2F)nc1CN1CCC(C(=O)NCc2ccco2)CC1,1.9%,i,3.9e-08,i,0%[11.4 µM]
Nc1nc(SCc2ccccc2Cl)cc(C(=O)O)n1,-3.8%[11.5 µM],i,5.2e-09,i,4%[11.4 µM]
CCOC(=O)C1CCN(C(=O)c2ccccc2Oc2ccccc2)CC1,0.0%,i,2.8e-08,i,u
COc1ccc(NC(=O)N2c3ccccc3CC2C)cc1OC (stereo not given),-2.4%,i,4.1e-08,i,x
COc1cc(OC)c(S(=O)(=O)N2CCCCC2)cc1S(=O)(=O)N1CCCCC1,-2.3%,i,2.2e-08,i,u
CCCCn1nnc(NC(=O)c2ccc(-c3ccccc3)cc2)n1,-0.2%,i,3.4e-09,i,4%
CN(C)CCCOC(=O)c1cc2ccccc2o1,-0.8%,i,3.4e-08,i,12%
COCCn1c(=S)[nH]c2ncccc2c1=O,0.6%,i,1e-09,i,-1%
O=C(Oc1ccc(/C=N/O)cc1)c1ccccc1,0.0%,x,x,x,4%
Cc1ccc(S(=O)(=O)C2(C(=O)Nc3ccc4c(c3)OCO4)CC2)cc1,1.7%,x,x,x,3%
COc1ccc(OC)c(NC(=O)C2C3CCC(O3)C2C(=O)O)c1 (stereo not given),2.8%,x,x,x,24%
CS(=O)(=O)N1CCC2(CC1)CN(c1cccc(-c3ccccc3)c1)C2,-0.8%,i,1e-09,i,-23%
C=CCn1c(SCC(=O)Nc2c(C)nn(Cc3ccccc3)c2C)nnc1C(O)c1ccccc1 (stereo not given),-0.8%,i,1e-09,i,-4%
COC(=O)c1nnn(-c2nc(N3CCCCC3)nc(N3CCCCC3)n2)c1C,-1.8%,i,7e-09,i,3%
CCn1c(-c2ccco2)n[nH]c1=S,x,i,9.4e-08,i,x
CCOC(=O)c1cc(C)n(S(=O)(=O)c2ccc(C)cc2)c1C,1.1%,x,x,x,u
COc1ccc(S(=O)(=O)N2CCCC2C(=O)NCc2cccs2)cc1 (stereo not given),-2.0%,i,1.9e-08,i,9%
CCCCOC(=O)CCc1n[nH]c(=O)[nH]c1=O,-0.5%,x,x,x,5%

# Screening results (PubChem BioAssay)
